MT1-MMP act inh: inhibitors of human MT1-MMP activation. P50281. HT1080 RFP-PRO-GFP cells, GFP/RFP ratio fluorescence, overnight; percent of plate control window, DMSO zero. GFP/RFP ratio change, % at 20 µM. hit rate 0.061% among 360,000. AID 651647;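 active = GFP/RFP ratio change of at least 30% with cell ATP level not reduced by more than half and red fluorescence within 50% of control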; also: strong numbers were not always called active
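Compound: 20 µM single dose, 1% DMSO / System: HT1080 RFP-PRO-GFP cells / Controls: DMSO and RFP-L50D-GFP cell wells / Read-out basis: GFP/RFP fluorescence ratio / Schedule: overnight compound exposure at 37 °C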
Rce1 inh: yeast Ras-converting enzyme inhibition. calls only. hit rate 0.27% among 290,000. yeast membranes, quenched prenylated peptide cleavage fluorescence. Q03530. AID 2563;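 active = fall in fluorescence gain of 50% or more versus controls, with final raw signal at or below 3038400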;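 also: plate controls were neutral control wells for no effect and wells lacking membranes for full effect; tested at 10 µM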
Target sequence (Q03530 whole entry, looked up): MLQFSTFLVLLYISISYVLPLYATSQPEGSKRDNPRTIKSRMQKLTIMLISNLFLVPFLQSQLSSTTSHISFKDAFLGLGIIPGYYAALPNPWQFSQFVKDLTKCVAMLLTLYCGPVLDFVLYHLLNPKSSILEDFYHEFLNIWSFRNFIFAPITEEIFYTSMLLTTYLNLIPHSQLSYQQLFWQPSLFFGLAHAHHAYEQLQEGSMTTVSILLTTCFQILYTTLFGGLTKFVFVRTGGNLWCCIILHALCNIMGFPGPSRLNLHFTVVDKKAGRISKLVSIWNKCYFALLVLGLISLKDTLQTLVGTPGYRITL
Env fusion inh: blocks HIV Env-driven cell-cell fusion. inhibition, % at 12.3 µM. HeLa-JRFL Env/CEM21 cell fusion, luciferase. hit rate 1.1% among 360,000;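 active = mean replicate inhibition score of at least 50 and every replicate individually at or above 50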;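 also: 0% = plate neutral controls and 100% = maraviroc near 300 nM; one replicate is shown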
eIF4H inh: inhibitors of RNA binding by human eIF4H. Q15056. eIF4H fluorescence polarization binding assay. inhibition, % at 35 µM. hit rate 0.94% among 290,000;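 active = 50% or more with normal probe brightness, or confirmed in later tests; about a fifth of its hits are not listed in these tables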;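 also: calls also rest on retests at 20 µM and on dose response follow-up; 0% = protein and probe with vehicle and 100% = probe without protein; strong numbers were not always called active; many hits fall short of the cut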
CSC inhib: blocks cancer stem cells; inhibition, % at 7.5 µM; cancer stem cell-like cells viability, luminescence; AID 2717; hit rate 1.1% among 300,000;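 active = mean at 75% or more and at least half the replicates too; tested in HMLE shEcad cells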;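 also: 0% = median of negative and 100% = median of positive control wells; the first replicate is given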
Yeast UUG start: modulators of start codon recognition fidelity in yeast; S. cerevisiae UUG-firefly luciferase reporter, luminescence/redox ratio; hit rate 0.13% among 350,000; activity score, % at 18.7 µM;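 active = replicate mean at a twofold rise or more, about +100% in these data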;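 also: firefly luciferase made from a UUG start codon reports start codon fidelity; reporter light over untreated wells divided by growth signal over untreated wells; some hits fall short of that in this replicate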
PABP polyA inh: PABP-poly(A) binding inhibition | inhibition, % at 35 µM | hit rate 1% among 290,000 | PABP-poly(A) RNA binding, fluorescence polarization | P11940;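 active = 50% or more with normal probe brightness, or confirmed in later tests; about a fifth of its hits are not listed in these tables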;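 also: calls also rest on retests at 20 µM and on dose response follow-up; controls were probe without protein and protein plus probe with vehicle; some compounds called inactive have numbers as strong as hits; many hits fall short of the cut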
eIF4H inh retest: recorded beside eIF4H inh, whose call it bears; inhibition, %; compound at 20 µM; confirmation average;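 mean of two retest wells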
PABP polyA inh retest: recorded beside PABP polyA inh, whose call it bears; inhibition, %; compound at 20 µM; confirmation repeats;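 mean of two retest wells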
MT1-MMP act inh RFP: second read-out of MT1-MMP act inh, no call of its own (marks repeat the call); RFP signal change, %; measured here: RFP expression control read;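 0 = vehicle wells; hits needed this value within 50% of zero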
* marks the source's active call; other numbers are inactive results; i = inactive; nt = not tested or not shown; & = joins results of further samples; [ ] = another dose, or the depositor's remark.

SMILES	MT1-MMP act inh	MT1-MMP act inh RFP	Rce1 inh	Env fusion inh	eIF4H inh	CSC inhib	Yeast UUG start	PABP polyA inh	others
C[C@H](CO)N1C[C@H](C)[C@@H](CN(C)S(=O)(=O)c2ccccc2)Oc2ccc(NS(=O)(=O)c3cn(C)cn3)cc2C1=O	2.8	3.0	nt	11.2[16.7 µM]	nt	nt	7.1&-12.0	nt
CCC(=O)NCCCNc1nc2c(C)cccc2cc1C#N	-2.4	3.2	nt	-6.2	2.6	5.1	nt	-8.9
CCc1ccc(CNc2ccc(O)cc2)cc1	21.3	17.2	i	nt	53.0	13.6	-24.9	25.3	eIF4H inh retest=2.9;PABP polyA inh retest=6.6
Cc1ccc(C)c(N2CCN(S(=O)(=O)c3ccc4[nH]c(=O)ccc4c3)CC2)c1	2.0	-1.6	i	0.2	4.4	1.3	-8.9	-0.1
O=C(Nc1sc2c(c1C(=O)NCc1cccnc1)CCCC2)c1ccco1	-4.0	3.0	i	7.0	4.5	-2.5	0.5	-4.4
Cc1nonc1CC(=O)N1CCc2c([nH]c3ccccc23)C1c1ccccc1F (configuration not stated)	-2.5	-1.5	i	15.6	-9.0	3.9	2.7	-2.4
COc1cccc(C(=O)OCCNC(=O)c2cccnc2)c1	0.3	3.5	i	-6.6	-2.8	-8.8	nt	10.1
CC(NC(=S)Nc1c(Cl)cccc1OC(F)F)C(C)(C)C (configuration not stated)	-7.9	1.8	i	-10.3	-20.3	-30.5	-19.3	-10.8
CCn1c(SCC(=O)N/N=C/c2ccncc2)nc2ccccc21	-1.5	0.5	i	14.4	4.8	2.3	nt	10.4
CCn1c2ccccc2c2cc(N=C3SC(CC(=O)Nc4ccccc4OC)C(=O)N3CCOC)ccc21 (configuration not stated)	-2.5	-2.9	i	16.0	5.6	15.2	-9.6	-1.3
CCOc1ccc(CNC(=O)C2CCN(S(=O)(=O)N3CCCC3)CC2)cc1OC	-2.4	-4.3	i	3.0	0.8	4.3	-8.0	2.8
CCOc1ccc(-n2c(=O)c3sccc3n(CC(=O)Nc3cccc(OC)c3)c2=O)cc1	-5.0	-3.6	i	5.5	-6.6	-6.0	nt	5.8
C=CCNc1nc(Cl)nc(NCc2ccco2)n1	2.1	0.9	i	-40.9	-3.0	-5.3	-16.1	-4.1
N#Cc1c(N2CCOCC2)nsc1-c1ccc(C(F)(F)F)cc1	3.5	-9.6	nt	-66.1	-16.6	10.3	-21.2	-12.9
C=CCn1c(SCC(=O)Nc2ccccc2C)nc(O)cc1=O	-0.1	1.4	i	-2.5	-4.3	1.7	37.5	4.3
Cc1ccc(C)n1-c1ccc(N2CCOCC2)nc1	-4.2	3.1	i	nt	71.4*	nt	-4.3	66.2*
CC(NC(=O)CN(c1ccc(Br)cc1)S(C)(=O)=O)c1ccccc1 (configuration not stated)	-2.1	-1.5	i	22.6	9.1	-6.1	0.4	23.5
Cc1ccc(C(C(=O)NCc2ccco2)N(Cc2ccco2)C(=O)CNC(=O)c2ccco2)cc1 (configuration not stated)	-0.1	-1.5	i	-80.6	-1.0	-9.5	6.6	5.1
CCCSc1nc(N)cc(=O)[nH]1	-5.1	3.4	i	nt	-1.9	nt	-7.4	-8.5
Cc1ccc(C)c(NC(=S)Nc2ncccc2C)c1	2.4	3.0	i	-24.4	0.0	-9.4	nt	-4.8
CCOC(=O)c1c(C)[nH]c(C)c1C(=O)COC(=O)c1cc2ccccc2cc1O	-4.8	-9.8	i	-0.5	-9.1	21.0	nt	-18.6
CCCN1CCC(C)(C(=O)Nc2cccc(OC(C)C)c2)C1 (configuration not stated)	0.3	6.7	nt	-14.6	nt	nt	-14.0	nt
Cc1ccc(SCCC(=O)Nc2cccc(N(C)S(C)(=O)=O)c2)cc1	8.0	-2.2	i	-2.4	-7.7	-8.0	-7.6	-4.3
Nc1nonc1C(=O)NCCNCc1cc(Br)ccc1OCc1ccc(F)cc1	0.2	-9.9	i	67.0*	-4.3	2.6	8.3	4.0
COc1ccc(/C=C/C(=O)NCc2ccc3c(c2)OCO3)cc1OC	2.6	0.9	i	-11.4	nt	-5.1	nt	nt
Additional records
SMILES	MT1-MMP act inh	MT1-MMP act inh RFP	Rce1 inh	Env fusion inh	eIF4H inh	CSC inhib	Yeast UUG start	PABP polyA inh	others
O=c1c2[nH]c3cccc(Cl)c3c2ncn1Cc1ccco1	3.8	1.1	i	-11.3	0.2	0.0	nt	5.4
CCNc1nc(Oc2ccc(C(=O)OC)cc2)nc(SC)n1	-1.7	5.3	nt	-6.0	-3.1	-8.0	-4.6	4.2
COc1ccccc1C(CC(N)=O)c1ccco1 (configuration not stated)	1.2	2.5	i	nt	-0.4	-14.4	-10.0	-3.4
O=C(OCC(=O)N1CCCCC1)c1cccs1	-1.4	1.5	nt	-30.8	nt	-7.9	-27.3	nt
O=C(NCC1CCCO1)c1ccc(C(=O)NCC2CCCO2)cc1 (configuration not stated)	0.1	1.8	i	nt	-11.7	-4.2	nt	-1.0
O=C1C2C(C(=O)N1/N=C/c1ccco1)C1C=CC2C12CC2 (configuration not stated)	0.4	5.7	i	nt	-5.4	-9.9	-2.9	-9.0
Cc1ccccc1CC(=O)Nc1sc(C(C)C)cc1C(=O)N1CCOCC1	-1.9	0.9	i	nt	-3.4	nt	-12.8	6.5
O=C(NCCc1c[nH]c2ccccc12)c1ccc(Br)o1	-0.8	-1.7	nt	nt	nt	-10.9	-18.8	nt
O=C(c1cccc2c1-c1ccccc1C2)N1CCCCC1	1.6	4.0	i	-0.6	-9.3	-11.9	nt	-5.0
N=c1c(C(=O)NC2CCCCC2)cc2c(=O)n3ccccc3nc2n1Cc1ccc(F)cc1	-5.0	-3.8	i	-4.0	-5.4	2.8	-16.3	7.7
CCOC(=O)CNC(=O)CSc1nnc(-c2ccncc2)n1-c1ccc(Cl)cc1	2.7	2.3	i	-25.8	0.7	-1.1	-11.9	0.6
CCOc1ccc(OCCC(=O)N(CCCOC)c2c(N)n(Cc3ccccc3)c(=O)[nH]c2=O)cc1	-3.6	-1.5	i	-104.7	nt	-21.1	nt	nt
CCN(CC)S(=O)(=O)c1ccc(Oc2ccccc2)c(N)c1	1.1	-6.9	i	3.2	-2.1	-10.2	nt	-1.9
Cc1nc2sccn2c(=O)c1S(=O)(=O)NCCc1ccccc1	2.9	5.0	i	16.9	-4.0	-10.6	-21.1	-3.6
O=C1OCCC1Sc1nnc(-c2ccc(F)cc2)n1Cc1ccccc1 (configuration not stated)	0.9	-2.8	i	-2.0	8.1	0.8	-16.3	37.3
O=C(NCC1CCCO1)/C(=C/c1ccccc1F)NC(=O)c1ccccc1 (configuration not stated)	-4.2	-1.0	i	2.4	6.9	-8.4	0.9	-7.7
Cc1ccc(OCC(=O)NCCCNC(=O)c2ccco2)cc1	5.8	13.9	nt	-8.4	-14.9	-8.1	-4.6	14.4
COc1ccc(C(=O)CSc2nccn2C)c(OC)c1	-0.2	-0.2	i	-26.8	16.6	-12.6	-30.1	2.1
CCOc1ccc(-n2ccnc2SCC(=O)Nc2nnc(CC)s2)cc1	3.4	-8.6	i	nt	42.5	-6.5	-14.5	25.2
Cc1ccn2cc(-c3cccc(NC(=O)c4ccccc4)c3)nc2c1	9.1	1.2	i	-36.7	-0.8	-1.5	nt	-4.0
O=C(CN(C(=O)CNC(=O)c1ccco1)c1ccc2c(c1)OCCO2)NC1CCCC1	1.3	5.7	i	-2.3	0.8	16.1	nt	2.8
O=C1OC(c2ccccc2)C2(CCCC2)C(=O)C12CCCC2 (configuration not stated)	0.0	-2.4	i	-15.2	-4.9	3.4	-23.0	-2.3
Cn1c(=N)n(CC(=O)c2ccc(Br)s2)c2ccccc21	1.6	-2.9	i	nt	-3.8	0.3	-19.4	4.0
Cc1ccc(S(=O)(=O)N2CCOCC2)cc1NC(=O)CN1C(=O)NC2(CCCC2)C1=O	2.2	3.5	nt	6.7	nt	-11.3	-6.0	nt
COc1ccc(NC2=C(C(C)=O)C(c3ccccc3)C(C(C)=O)C(C)(O)C2)cc1 (configuration not stated)	0.1	6.5	i	-6.6	1.0	-4.2	nt	3.9
Next section:
SMILES	MT1-MMP act inh	MT1-MMP act inh RFP	Rce1 inh	Env fusion inh	eIF4H inh	CSC inhib	Yeast UUG start	PABP polyA inh	others
COc1cc2c(cc1OC)C1=CC(=O)C(=O)N1C(C)(C)C2	-23.6	54.6	i	-11.6	4.0	-7.2	nt	9.2
Cc1cccc(C(=O)NC2CCN(CC(=O)NCc3ccccc3F)CC2)c1	4.3	3.4	i	13.8	5.2	-4.9	-0.3	4.1
C=CCn1c(SCC(=O)N(C)C2CCCCC2)nnc1C1CC1	0.2	3.2	nt	nt	nt	-0.6	-9.7	nt
O=C(N/C(=C/c1ccccc1Cl)C(=O)N1CCOCC1)c1ccccc1	-0.3	-0.9	nt	-0.1	nt	-0.1	0.5	nt
C=C(C1=CCN(S(=O)C(C)(C)C)[C@@H]1CCO)c1ccccc1 (some centres not stated)	-4.3	-6.8	nt	-0.8	nt	nt	-10.9	nt
O=C(COc1ccc(Br)cc1)N1CCOCC1	4.6	3.3	i	nt	0.5	-12.6	-8.6	6.8
CN/C(=C\[N+](=O)[O-])NCCSCc1ccc(CN(C)C)o1	3.2	2.6	nt	21.8	nt	-11.2	-5.9	nt
O=C(NCCc1ccc(Cl)cc1)C1CCN(S(=O)(=O)N2CCCCC2)CC1	3.5	0.7	i	nt	0.8	-11.6	0.3	6.6
C/C(=N/NC(=O)C(C)n1nc(C)c([N+](=O)[O-])c1C)c1ccc(OCC(N)=O)cc1 (configuration not stated)	4.1	-4.9	i	-1.5	-6.1	-8.3	nt	-4.2
CCOC(=O)c1cccc(NC(=O)CSc2nnc(-c3cccnc3)n2C)c1	0.5	3.4	nt	-3.9	-13.3	12.7	-16.9	-0.6
Cn1nc(C(=O)Nc2sc3c(c2C#N)CCCC3)ccc1=O	1.1	3.8	i	1.6	4.1	6.2	nt	1.0
CCCCCCNc1nc(Cl)nc(NC(C)(C)CO)n1	-1.5	-0.7	i	-1.9	5.8	5.5	nt	4.1
Cc1ccccc1C(=O)Nc1ccnn1C1CCN(Cc2cnn(C)c2)CC1	-1.4	2.1	i	-5.9	1.0	14.9	-3.6	-11.0
OCc1cn(-c2ccccc2)nc1-c1ccc(Br)cc1	-1.2	-2.6	i	-29.5	3.6	16.8	-1.7	7.8
COc1ccc(S(=O)(=O)NCc2ccco2)cc1NC(=O)c1ccccc1	2.5	-0.3	i	0.0	3.1	8.7	-20.0	1.1
CCCCn1c(=O)[nH]c(=O)c2c1nc(-c1ccc(-c3ccccc3)cc1)n2C	1.2	-1.0	i	6.3	-8.2	12.7	-6.8	-0.5
CN(C)/C=C/C(=O)c1cccc([N+](=O)[O-])c1	2.0	3.1	i	19.3	10.5	-2.9	nt	-5.5
Cc1onc(-c2c(F)cccc2Cl)c1C(=O)OCn1nnc2ccccc2c1=O	-10.8	-8.1	nt	2.5	-3.2	-4.2	0.6	-7.0
CC1=Nc2cccc([N+](=O)[O-])c2NC(=O)C1	-0.8	0.9	nt	-8.3	-8.6	nt	nt	-4.3
C=C(C)C1CC=C(C)/C(=N/NC(=O)c2ccccc2[N+](=O)[O-])C1 (configuration not stated)	2.1	-7.8	i	-12.2	8.3	-7.9	nt	-2.0
CCC(C)NC(=O)C1CCCN1S(=O)(=O)c1ccc(Cl)cc1 (configuration not stated)	3.3	1.2	i	nt	-6.9	-1.7	-17.6	1.9

A portion of the library (hit frequency here may not be typical).
